VACV mCherry inh – vaccinia inhibition (mCherry reporter); Vaccinia virus mCherry reporter infection, fluorescence; about a quarter of the inactives have no number; Potency, µM (doses to about 36.5 µM), without a hit: at the top dose activity change, negative = inhibition, most hits filed as inhibitors; 310,000 compounds, 0.63% hits; active = well fitted inhibition curve with a large enough effect; inconclusive = small, poorly fitted or top-dose-only effect; inactive = no such curve, though single readings can be large or run the other way; tested in A549 cells; note: nearly all actives have a fitted effect of over 35% in size; inactives centre near -10
Vaccinia Venus – inhibitors of vaccinia virus (Venus reporter); Vaccinia virus Venus reporter expression, fluorescence; Potency, µM (highest dose often 36.5 µM), without a hit: top-dose activity change, negative = inhibition, hits mostly inhibitors; 330,000 compounds, 0.46% hits; AID 720580; active means well fitted inhibition curve with a large enough effect; inconclusive means small, poorly fitted or top-dose-only effect; inactive means no such curve, though single readings can be large or run the other way; tested in A549 cells; note: nearly all actives have a fitted effect of over 30% in size; inactives centre near -10
An asterisk follows results filed as active; i = inactive; ? = inconclusive; / = not tested or not shown; [ ] = dose if it differs, or a comment. % is set by controls: 0 for no effect and ±100 for the full control effect; potency is the fitted concentration of half-maximal effect.

Preview:
Compound	VACV mCherry inh	Vaccinia Venus
CCCCN(C(=O)CSc1nc2ccccc2n1CC)C1CCS(=O)(=O)C1 (configuration not stated)	-17%	-14%
COC(=O)c1ccc(CNC(=O)COC(=O)c2ccccc2-c2ccccc2)cc1	?	-27%

Main list, repeating the preview:
Compound	VACV mCherry inh	Vaccinia Venus
CCCCN(C(=O)CSc1nc2ccccc2n1CC)C1CCS(=O)(=O)C1 (configuration not stated)	-17%	-14%
COC(=O)c1ccc(CNC(=O)COC(=O)c2ccccc2-c2ccccc2)cc1	?	-27%
CCN(CC(=O)Nc1ccc([N+](=O)[O-])cc1OC)CC(=O)NC(C)(C)C	-8%	-9%
COc1cc(C(=O)NCc2ccc3c(c2)CCN3C(=O)c2ccncc2)cc(OC)c1OC	-2%	-15%
COC(=O)[C@]12CCCCC=C1N(CCC1=CCCCC1)C(=O)[C@H](CC(=O)NCc1ccccc1)C2	6%	-8%
O=C1CN(c2cc(Cl)cc(Cl)c2)C(=O)CN1/N=C/c1cccnc1	-13%	-2%
CCc1ccc([C@@H]2CC(=O)[C@@H]3CN(S(=O)(=O)c4ccc(Cl)cc4)[C@H](c4ccc(C)cc4)C[C@@H]3N2S(=O)(=O)c2ccc(C)cc2)cc1	18%	-6%
Cn1c(=O)[nH]c(=O)c2c1nc(N1CCCCC1)n2CCOc1ccccc1	/	-7%
Cc1ccc(N2CCN(S(=O)(=O)N3CCCCC3)CC2)c(C)c1	-29%	-18%
CSc1ccccc1C(=O)NCc1ccc(S(N)(=O)=O)cc1	/	-11%
CCCc1cc(C(=O)N2CCN(S(=O)(=O)c3ccc(OC)c(OC)c3)CC2)cs1	-17%	-23%
O=C(NCc1nnc2n1CCN(Cc1ccc(C(F)(F)F)cc1)CC2)c1cccc(F)c1	-16%	-5%

Copied from the list:
Under VACV mCherry inh, CCCc1cc(C(=O)N2CCN(S(=O)(=O)c3ccc(OC)c(OC)c3)CC2)cs1 reads -17%
Under Vaccinia Venus, COC(=O)[C@]12CCCCC=C1N(CCC1=CCCCC1)C(=O)[C@H](CC(=O)NCc1ccccc1)C2 reads -8%

The listing continues.
Compound	VACV mCherry inh	Vaccinia Venus
COc1ccc(CC(=O)N2CCN=C2SCc2ccc([N+](=O)[O-])cc2)cc1	?	?
Cc1cc(C)nc(NS(=O)(=O)c2ccc(NC(=O)c3nc(SC(C)C)ncc3Cl)cc2)n1	-4%	-3%
O=C(CC(c1cccs1)N1Cc2ccccc2C1=O)Nc1ccc(F)c(F)c1 (configuration not stated)	i	-21%
COC(=O)c1scc(-c2ccc(C)cc2)c1S(=O)(=O)N1CCN(c2ccc(OC)cc2)CC1	-3%	0%
COc1cc([N+](=O)[O-])ccc1NC(=O)Cc1ccccc1	i	-9%
O=C(Nc1ccccc1C(=O)N1CCOCC1)C1CCCO1 (configuration not stated)	i	-6%
CSc1n[nH]c(=O)n1-c1ccc(Cl)cc1	i	-11%
CC1CCCN(CCCNC(=O)c2ccc3c(c2)N(Cc2cccc(Cl)c2)C(=O)c2ccccc2S3=O)C1 (configuration not stated)	-14%	?
COc1ccc(-c2c3c(=O)n(C)c(=O)n(C)c3c3c(-c4cccc(C)c4)nc4ccccc4n23)cc1	-25%	-10%
O=C(NNc1ccccc1)C(=O)N1CCCCC1	i	-10%
COCCN(Cc1ccc(C)cc1)C(=O)[C@H]1O[C@@H](n2cnc3c(N)ncnc32)[C@H](O)[C@@H]1O	19%	1%
CCOC(=O)c1ccc(OCc2nc(-c3cccs3)no2)cc1	i	-11%
C(=C\c1ccccc1)/CN1CCN(C(c2cccc3ccccc23)c2nnnn2-c2ccc3c(c2)OCCO3)CC1 (configuration not stated)	i	-15%
NS(=O)(=O)c1ccc(CCNC(=O)c2cc(-c3ccc(Br)cc3)nc3ccccc23)cc1	-1%	?
COc1ccc(N2CCN(C(=O)COC(=O)CSc3ccccc3)CC2)cc1	-5%	-5%
CN(C)CCOC(=O)/C(=C/c1cn(C)c2ccccc12)NC(=O)c1ccccc1	-9%	-12%
CN(C)/C=C/C(=O)c1cc(N2CCOCC2)ccc1[N+](=O)[O-]	0%	-5%
Cc1ccc(Cn2ccc(C3CC3)n2)cc1	-22%	2%
Cc1ccc2occ(C(c3nnnn3Cc3ccccc3)N3CCOCC3)c(=O)c2c1 (configuration not stated)	/	-10%
CCCCOc1nc2ccccc2nc1C(C#N)S(=O)(=O)c1ccccc1 (configuration not stated)	-1%	4%
CCOc1ccc(C(=O)OCC(=O)NC2CCCC2)cc1OCC	-6%	-8%
CCCCn1c(N)c(N(CCOC)C(=O)CSc2ccccc2C)c(=O)[nH]c1=O	i	-14%
COc1ccc(N=CC2=C(O)c3ccccc3C2=O)c(OC)c1	/	?
C#CCOCCOCCOCCNc1nc(N2CCN(C(=O)[C@H](CO)n3cc([C@@H](N)C(C)C)nn3)CC2)nc(N2CCN(C(=O)[C@H](CCCCN)n3cc([C@@H](N)[C@H](C)CC)nn3)CC2)n1	i	-9%
O=C(CSc1nnc2ccc(-c3ccccn3)nn12)NCC1CCCO1 (configuration not stated)	-6%	-9%
CCCCCCCCCCCCN1[C@@H](CC(C)=O)c2cc(F)ccc2S1(=O)=O	-14%	-17%
COc1ccc(Nc2nnc(SCC(=O)NC3CCCC3)s2)cc1	?	-13%
Cc1ccc(OCC(=O)Nc2ccc(N3CCN(C(=O)c4ccco4)CC3)cc2)cc1C	-15%	?
N#Cc1c2c(c(NCc3ccco3)n3c1nc1ccccc13)CCC2	-13%	-4%
CCOc1cc(-c2sc(Nc3cc(C)ccc3OC)n[n+]2-c2ccccc2)ccc1OC	?	-11%
Cc1csc(=O)n1CC(=O)OC(C)C(=O)Nc1ccc(F)c(F)c1F (configuration not stated)	0%	-7%
Cc1[nH]c2ccccc2c1C(c1ccccn1)N1CCC(C(N)=O)CC1 (configuration not stated)	22%[1.46 µM]	-20%
COc1ccc(C(=O)/C=C2\Sc3ccccc3N2C)cc1	-25%	-8%
COc1ccc(CC(=O)OC2CCCN(C)C2)cc1 (configuration not stated)	-25%	-13%
CCOc1ccccc1C(=O)Nc1ccc(S(=O)(=O)Nc2ncccn2)cc1	-14%[7.34 µM]	-4%[7.34 µM]
CCCCn1c(-c2cccnc2)nc2cc3[nH]c(=O)c(C(C)C)nc3cc21	i	-20%
Nc1c(Cl)c(Cl)nc(C(=O)OCC(=O)N2CCCC2=O)c1Cl	-13%	-5%
COc1ccc(OC)c(NS(=O)(=O)c2cc3c4c(c2)CCN4C(=O)CC3)c1	-1%	-12%
C=CCc1c(C)nc(C)nc1N/N=C/c1ccc(F)cc1	/	3%
O=c1c2c(-c3cccs3)csc2[nH]c(=S)n1-c1ccccc1	-7%	6%
O=C(COc1ccccc1)NC1CCCc2ccccc21 (configuration not stated)	-15%	1%
O=C(N/N=C/c1ccc(-c2ccccc2)o1)c1ccccc1O	-15%	-9%
CN(CCc1nnc(N)s1)[N+](=O)[O-]	-13%	-8%
CN1CCN(c2ccc(CNC(=O)c3cccc4c(-c5ccc(F)c(F)c5)coc34)cc2)CC1	?	?
Cc1ccc(NCC(=O)N/N=C\c2ccc([N+](=O)[O-])o2)cc1	11µM*	?
CC(=O)N1CCN(C(=O)CN2C(=O)NC(C)(c3ccc4ccccc4c3)C2=O)CC1 (configuration not stated)	-14%	-5%
CCOC(=O)C1(C)CCN1C(=O)c1ccc(SC(F)(F)F)cc1 (configuration not stated)	i	-7%
CC(=O)Nc1ccc(C(=O)N2CCCC(c3nc(SCc4ccccn4)ncc3C)C2)cc1 (configuration not stated)	3%	16%
COc1cc(NC(=O)CCc2nnc3ccc(N4CCCCC4)nn23)cc(OC)c1OC	-11%	-2%
Cc1ccccc1CN1C(=O)CN=C(c2ccccc2)c2cc(Cl)ccc21	?	-22%
Cc1cccc(NC(=O)Cc2nc(-c3c[nH]c(C(=O)N4CCCC4)c3)cs2)c1	-29%	-19%
O=C(NCc1ccccn1)C1CCN(Cc2cccc(OCc3ccccc3)c2)CC1	-20%	-16%
CCC(OCC(O)CN1CCN(CCN2C(=O)c3cccc4cccc(c34)C2=O)CC1)c1ccccc1 (configuration not stated)	?	?
Cn1cnnc1SCC(=O)NNC(=O)COc1ccc(Br)cc1	-5%	5%
COc1ccccc1N(C)S(=O)(=O)c1ccc(C(=O)OCC(=O)N(C(C)C)C(C)C)cc1	?	-21%
Cc1ncc(C[n+]2csc(C)c2C)c(N)n1	-8%	-9%
Cc1cc2nc(C(F)(F)F)[nH]c(=O)n2n1	/	-5%
Cc1ccc(NC(=O)CCS(=O)(=O)c2ccc(Br)s2)c(Br)c1	?	?
O=C(O)c1cccc(Cn2cc(Cl)cn2)c1	-7%[1.46 µM]	-7%
O=C(COc1ccccc1)NNC(=O)c1cc2ccccc2o1	-8%	-5%

(next part)
Compound	VACV mCherry inh	Vaccinia Venus
CN(C(=O)CC1C(=O)NCCN1Cc1ccc(F)cc1)C1CCOCC1 (configuration not stated)	?	2%
COC(=O)c1cc(OC)c(OC)cc1NC(=S)N1CCN(c2ccccc2)CC1	-12%	-10%
Cc1cccc(C)c1NC(=O)C1(C)CSCC(=O)N1CCc1c[nH]c2ccccc12 (configuration not stated)	i	2%
CCC(CC)CN1CCN=C1Nc1ccccc1	i	2%
Cc1ccccc1NS(=O)(=O)c1ccc(C(=O)NCC(C)(C)N2CCOCC2)cc1	-3%	-17%
Cn1nc(-c2ccccc2)c(CO)c1Sc1ccccc1	-2%	-14%
O=C(c1ccc2c(c1)N(Cc1ccccc1)C(=O)c1ccccc1S2=O)N1CCC(Cc2ccccc2)CC1 (configuration not stated)	-24%	-17%
CN1/C(=C/C=C(/C#N)C(N)=O)C(C)(C)c2ccccc21	?	?
CN(CC(=O)Nc1cccc(F)c1)C(=O)CSc1ccccc1	-2%	-4%
Cc1ccccc1-n1cc(-c2ccccc2)nc1SCC(=O)Nc1ccc(F)cc1	-1%	-6%
COc1ccc(CCNc2ccc(C)cc2)cc1	-20%	-10%
Cc1cc2c(=O)[nH]c(Cc3ccccc3)nc2s1	-11%	-20%
COc1cccc(-c2nc(CS(=O)(=O)CC(=O)N3CCOCC3)c(C)o2)c1	i	-12%
O=[N+]([O-])c1cc([N+](=O)[O-])c2c(=Nc3ccccc3)n(-c3ccccc3)n(O)c2c1	5%	-2%
COc1ccccc1/C=C/c1nc(C#N)c(N2CCN(C)CC2)o1	i	-19%
COc1ccc(NC(=O)CN(C)C(=O)C(CCSC)NC(=O)c2ccccc2)cc1 (configuration not stated)	i	-3%
Cc1cccc(NC(=O)[C@@H]2CCCN2C(=O)OC(C)(C)C)c1	-19%	-13%
CCSc1ccc2nnc(-c3cccs3)n2n1	-15%	-16%
O=[N+]([O-])c1ccc(-n2nnnc2CN2CCOCC2)cc1	i	-11%
Cc1nc2oc3ccccc3c(=O)c2cc1C(=O)O	i	-1%
COc1ccc(-c2nc(C#N)c(NC(C)C)o2)cc1	-10%	-6%
O=C(Nc1ccc(F)c(Cl)c1)Nc1csc2ccccc12	i[7.34 µM]	-7%[7.34 µM]
CCOc1cc(/C=N\NC(=O)Cn2nnc3ccccc32)ccc1O	-9%	-5%
COC(=O)c1oc2ccc(Cl)cc2c1NC(C)=O	-6%	-12%
COc1ccc(-c2nnc(SCC(=O)c3cccs3)o2)c(OC)c1	-4%	-14%
Cc1ccc2c(c1C)NC(=O)CC(c1ccccc1O)=N2	i	-26%
COc1ccc(C2=C(C(C)=O)Sc3nnc(-c4ccccc4)n3N2C(C)=O)cc1	-5%	-7%
CCOc1ccccc1NC(=O)Cn1nnc(C(=O)Nc2ccccc2Cl)c1N	-11%	-21%
CCOc1ccc(/C(CCC(=O)O)=N/NC(=O)c2cccc(S(=O)(=O)Nc3ccccc3OC)c2)cc1	-22%	1%
COc1ccc(CN2CN(C3CCCC3)CSC2=S)cc1	-19%	-4%
COc1ccc(NC(=O)C2(c3cccs3)CCOCC2)cc1Cl	-4%	3%
CCOc1cccc(-c2nnc3n2N=C(c2cc(OC)ccc2OC)CS3)c1	-8%	5%
O=C(Nc1ccc(N2CCOCC2)c([N+](=O)[O-])c1)c1ccco1	i	-17%
Cc1cccc(NC(=O)CSc2nc3c([nH]c4ccccc43)c(=O)n2C)c1	?	?
COc1cc([N+](=O)[O-])ccc1NC(=O)C[n+]1cccc(C(C)=O)c1	4%	7%
O=C(c1nc(-c2ccccc2)n(-c2ccccc2)n1)N1CCN(S(=O)(=O)c2ccccc2)CC1	?	-27%
Cc1cccc(NC(=O)c2cc(-c3cc(C)ccc3O)n[nH]2)c1	-13%	-19%
CCC1CCCCN1CCCNC(=O)Cn1ncc2c([nH]c3ccc(C)cc32)c1=O (configuration not stated)	i	-15%
CCOC(=O)C1CCCN(c2c(NCCN3CCCCC3C)c(=O)c2=O)C1 (configuration not stated)	-8%	-1%
CCc1cccc(C)c1NC(=O)CSc1n[nH]c(-c2ccccc2)n1	-13%	-16%

Retrieved by structure from the entries so far, three records:
Compound	VACV mCherry inh	Vaccinia Venus
CCc1cccc(C)c1NC(=O)CSc1n[nH]c(-c2ccccc2)n1	-13%	-16%
Cc1cccc(NC(=O)c2cc(-c3cc(C)ccc3O)n[nH]2)c1	-13%	-19%
CCOC(=O)C1CCCN(c2c(NCCN3CCCCC3C)c(=O)c2=O)C1 (configuration not stated)	-8%	-1%

Assay outcomes (PubChem)
